# ClpP mod: qHTS Assay for Activators of ClpP. purified B. subtilis ClpP, FRET peptide cleavage, 20 min. Potency, µM (series often up to 57.5 µM), for inactives: at the highest dose activity change, negative = active. actives 1.9% (n = 340,000). AID 651965, 2013; active = well fitted falling curve with a large enough effect; inconclusive = small, poorly fitted or top-dose-only effect; inactive = no such curve, though single readings can be large or run the other way; also: potency is read from the fitted curve at half-maximal effect; the source files actives as falling curves though it sought activators and does not explain the sign; nearly all actives have a fitted effect of over 65% in size; many hits overshoot -100%
# Target sequence (P80244 whole entry, looked up): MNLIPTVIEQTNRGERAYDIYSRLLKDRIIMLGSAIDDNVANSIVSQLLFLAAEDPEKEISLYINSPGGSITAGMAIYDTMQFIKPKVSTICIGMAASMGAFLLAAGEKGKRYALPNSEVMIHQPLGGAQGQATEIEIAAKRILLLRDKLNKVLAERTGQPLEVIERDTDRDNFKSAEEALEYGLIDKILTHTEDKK
#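 ClpP 10 microg/mL final, pH 8 Tris/KCl buffer with BSA, glycerol, Tween-20; compound pinned in; FRET-FV substrate; RT 20 min; Ex320/Em430; ΔFRET vs ADEP 5.8 microM, DMSO, no enzyme.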
# Menin-MLL FL inh: menin-MLL binding inhibition, fluorescein peptide | Fluorescence polarization, fluorescein-MLL peptide displacement from menin | FP activity change, % at 61.4 µM | 290,000 tested, under 10 active; inconclusive = falling polarisation curve, or a change in total fluorescence; inactive = total fluorescence flat and polarisation flat or rising; no compound was filed as active; the % refers to the polarisation; negative = inhibition;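 also: % of control where 0% means no effect; inhibitors lower the polarisation; unlabelled MLL peptide was the positive control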
# TRPV1 potentiator: enhances activation of the human vanilloid receptor TRPV1 | Q8NER1 | TRPV1-expressing cells, Fluo-8 calcium influx, capsaicin EC20 potentiation; host cell line not named in the record; control for the full effect not named in the record | potentiation, % at 8.33 µM | actives 0.02% (n = 320,000) | AID 540277; active means potentiation above 80%; inconclusive means 30% to 80%; inactive means below 30%; also: 0% is about no effect
# Target sequence (Q8NER1 whole entry, looked up): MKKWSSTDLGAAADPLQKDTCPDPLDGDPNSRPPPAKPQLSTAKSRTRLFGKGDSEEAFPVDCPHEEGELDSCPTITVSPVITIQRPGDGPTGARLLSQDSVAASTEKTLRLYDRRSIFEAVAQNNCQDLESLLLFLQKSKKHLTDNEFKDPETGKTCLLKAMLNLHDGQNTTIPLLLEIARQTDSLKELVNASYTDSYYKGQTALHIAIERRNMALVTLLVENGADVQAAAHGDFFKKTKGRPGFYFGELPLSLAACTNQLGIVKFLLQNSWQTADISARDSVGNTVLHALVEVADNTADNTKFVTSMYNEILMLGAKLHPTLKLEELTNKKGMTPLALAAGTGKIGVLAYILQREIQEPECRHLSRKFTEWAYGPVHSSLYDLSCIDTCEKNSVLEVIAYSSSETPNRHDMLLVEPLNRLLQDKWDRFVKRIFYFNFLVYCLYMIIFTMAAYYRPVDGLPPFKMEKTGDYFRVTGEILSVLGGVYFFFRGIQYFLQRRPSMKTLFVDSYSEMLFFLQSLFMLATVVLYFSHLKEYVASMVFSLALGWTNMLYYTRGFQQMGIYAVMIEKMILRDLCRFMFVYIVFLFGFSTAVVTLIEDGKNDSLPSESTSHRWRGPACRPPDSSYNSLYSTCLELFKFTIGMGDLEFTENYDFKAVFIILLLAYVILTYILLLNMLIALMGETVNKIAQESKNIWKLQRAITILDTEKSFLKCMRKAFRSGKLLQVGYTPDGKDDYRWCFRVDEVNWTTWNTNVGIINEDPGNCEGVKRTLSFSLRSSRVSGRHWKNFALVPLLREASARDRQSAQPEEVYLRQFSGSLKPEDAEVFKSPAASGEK
#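 Fluo-8 calcium influx in TRPV1-expressing cells, kinetic read (ex 480/em 520 nm). Compound added and read 3 min for agonist activity, followed by capsaicin at EC20 final and 2 min further read for enhancement.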
# TRPML1 blocker: inhibitors of human TRPML1 channel; Q9GZU1; TRPML1-inducible cells, Ca2+ dye fluorescence, FDSS; active compounds read low; inhibition of EC80 agonist-evoked calcium signal; activity change, negative = inhibition, % (no concentration beside the values); actives 0.02% (n = 390,000); AID 624415; in the data active means activity change below about -50%; inconclusive means about -30% to -50%; inactive means above about -30%;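 also: stimulus is agonist 54-4 at its EC80 concentration; % is scaled to controls: 0 for no effect and ±100 for the full control effect; compound concentration not given in the record; the text of the record puts the active cut at -80%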
#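 Calcium fluorescence in TRPML1-DL cells induced overnight with Tet: a 110 s read after compound pin addition, then a 110 s antagonist read after challenge with 54-4 at 4 uM final (EC80).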
# TRPML1 ag: activates the human TRPML1 channel | activation, % (test concentration not listed) | TRPML1-expressing cells, Ca2+ dye fluorescence, FDSS; host cell line not named in the record; reference of the full effect not given here | actives 0.12% (n = 410,000) | AID 624414; in the data active = activation above about 50%; inconclusive = about 30% to 50%; inactive = below about 30%; also: 0% is about no effect; the text of the record puts the active cut at 80%
#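 In this qHTS format, compounds were pin-transferred onto Ca8-dye-loaded TRPML1-DL cells induced with Tet overnight, and intracellular Ca2+ fluorescence was recorded kinetically for 110 s after a 10 s baseline. A subsequent 4uM final 54-4 (EC80) addition followed by a second 110 s read served as the antagonist phase.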
# Sfp PPTase inh: Sfp phosphopantetheinyl transferase inhibition; Q9F4F7; Potency, µM, for inactives: max response, negative = inhibition, actives largely listed as inhibitors; Biochemical Sfp PPTase activity, qHTS; actives 3.5% (n = 310,000); active = well fitted inhibition curve with a large enough effect; inconclusive = small, poorly fitted or top-dose-only effect, or another doubt; inactive = no such curve, though single readings can be large or run the other way;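 also: the enzyme is Sfp with the accession as filed and its product quenches rhodamine fluorescence; potency is read from the fitted curve at half-maximal effect; 0% = enzyme reaction without inhibitor and -100% = no enzyme wells; top concentration of the series not given in the record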
#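 Compounds were incubated with enzyme (final 15 nM) for 15 min at room temperature before substrate addition started the reaction. Fluorescence at 525 nm excitation, 598 nm emission was recorded immediately and after 30 minutes.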
# PINK1 expr mod: PINK1 expression modulation; PINK1 immunofluorescence, high-content cytometry, 24 h; Potency, µM (top dose mostly 76.6 µM), for inactives: at the highest dose activation (PINK1 increase), actives largely listed as activators; actives 0.2% (n = 410,000); AID 624263; active = well fitted activation curve with a large enough effect; inconclusive = small, poorly fitted or top-dose-only effect; inactive = flat fitted curve, though single readings scatter; cell line not stated here;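 also: potency is read from the fitted curve at half-maximal effect; % of control where 0% means no effect; nearly all actives have a fitted effect of over 65% in size; a mitochondrial uncoupler was the plate control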
#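 Stable cell line, 250 cells/well, 12 h attachment; compounds pinned at 5 concentrations, 24 h; CCCP control. Fixed with nuclear dye, primary antibodies 12 h at 10 degrees C, secondary plus cell stain; laser-scanning cytometer read.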
# * marks the source's active call; other numbers are inactive results; ? = inconclusive; nt = no result given; [ ] = remark or other dose.
SMILES,ClpP mod,Menin-MLL FL inh,TRPV1 potentiator,TRPML1 blocker,TRPML1 ag,Sfp PPTase inh,PINK1 expr mod
COc1ccc(N2Cc3cccc(C(=O)Nc4ccc(C(C)C)cc4)c3C2=O)cc1,-4.0%,nt,nt,18,1.9,nt,-0.5%
Cc1cccc(OCC(=O)N(Cc2ccco2)C2CCS(=O)(=O)C2)c1C (configuration not stated),1.7%,?,-12,-7,1.2,11%,0.7%
O=C(c1ccc(=O)n(Cc2ccccc2)n1)N1CCN(C/C=C/c2ccccc2)CC1,-2.9%,2.3,-35,21,1.4,8%,-1.6%
COc1cc(CC(=O)N(C)CC(=O)Nc2ccc(Cl)c(C(F)(F)F)c2)cc(OC)c1OC,nt,-4.2,5,-3,-0.5,16%,3.5%
Nc1ccc(N2CCCCC2)c(Cl)c1,nt,0.8,8,3,-0.8,17%,-1.6%
CCOc1ccc2c(c1)OC(c1ccccc1)(C(F)(F)F)NC2=O (configuration not stated),2.2%,nt,-1,-2,0.1,8%,6.8%
CCc1cc2c(=O)n(Cc3ccco3)c(SCC(=O)N(C)C3CCS(=O)(=O)C3)nc2s1 (configuration not stated),nt,5.8,6,-5,-1.0,7.9µM*,2.2%
Cc1ccc(Nc2nc(CSc3nnc(-c4ccccc4C)n3C)cs2)cc1,-1.0%,4.4,-14,44,3.5,?,0.9%
Cc1cccc(Oc2ncnc3oc(-c4ccccc4)cc23)c1C,28µM*,0.7,-2,19,3.1,12%,-0.1%
CCN(C(=O)COC(=O)c1ccccc1Nc1cccc(C)c1C)C1CCS(=O)(=O)C1 (configuration not stated),-1.4%,-3.1,0,9,2.3,9%,-2.1%
CN(C)C(=O)CSc1ncnc2scc(-c3ccccc3)c12,nt,0.4,-14,-2,1.3,16%,-1.3%
CCc1ccc(CNC(=O)c2cnc3sc(N(CC)CC)nn3c2=O)cc1,13µM*,nt,nt,-2,-0.2,nt,-0.2%
COc1ccc(OCCOc2ccc(N(C)S(=O)(=O)c3ccccc3)cc2)cc1,0.9%,nt,6,74,6.6,nt,2.8%
CCCN(CC1CC1)c1nc(N)c2c(N)nc(OC)cc2c1C#N,25µM*,1.7,-3,-1,0.0,-1%,3.5%
Cc1ccc(C(=O)Nc2ccccc2C(=O)O)cc1S(=O)(=O)N1CCCCCC1,1.5%,nt,nt,-2,1.1,nt,0.2%
COc1cc(C(=O)NCC(c2ccco2)S(=O)(=O)c2ccccc2)cc(OC)c1OC (configuration not stated),3.5%,nt,nt,1,0.7,nt,1.5%
C/C(=N\NC(=O)c1c(Cl)cnn1C)c1cccc(NC(=O)C(C)C)c1,0.6%,3.5,-2,-12,1.1,14%,2.8%
CCc1cc2ccccc2nc1SCC(=O)Nc1cc(OC)c(OC)cc1C(=O)O,-6.3%,1.2,18,?,0.9,?,0.8%
CCC(C)C(=O)Nc1cc(Cl)ccc1C(=O)O (configuration not stated),nt,5.1,5,-17,1.6,26%,-2.4%
CCCCn1nc(NC(=O)c2cccc(Cl)c2)c2cc3cccc(C)c3nc21,-16%,nt,nt,4,0.5,nt,0.3%
COc1ccc(S(=O)(=O)Nc2cc(Cl)ccc2OC)cc1,1.5%,0.8,7,9,-0.6,4%,13%
CC(NS(=O)(=O)c1ccc(CCC(=O)N2CCN(C)CC2)cc1)c1ccccc1 (configuration not stated),0.8%,1.8,0,7,-0.9,6%,-0.1%
CCOC(=O)C1CCN(S(=O)(=O)c2ccc3c(c2)N(C(C)=O)CCO3)CC1,-0.3%,1.3,3,-5,0.9,23%,-0.8%
CN(C)C(=S)Nc1ccc(Br)cc1Cl,nt,5.2,nt,-19,2.8,-1%,-0.9%
O=C(CN(C(=O)CCC(=O)Nc1ccccn1)c1ccc(F)cc1)NCc1ccco1,nt,-21,-19,23,0.7,6%,2.3%
O=S(=O)(NCCCO)c1ccc2c(c1)Cc1cc(S(=O)(=O)NCCCO)ccc1-2,-1.0%,0.6,?,-11,-1.7,20%,0.6%
CCCCCCOC(=O)Cc1c(C)nc(N)[nH]c1=O,nt,2.6,0,-12,0.4,1%,-0.8%
Cc1cc(C)c(NC(=O)Cn2c(=O)n(Cc3ccccc3)c(=O)c3c(C)c(C(=O)N(C)C)sc32)c(C)c1,-1.9%,nt,nt,4,1.5,nt,2.7%
O=C(O)CCC(NS(=O)(=O)c1ccc(N2CCCC2=O)cc1)C(=O)O (configuration not stated),-1.7%,-2.1,15,-6,1.1,-4%,-3.4%[38.3 µM]
O=C(Nc1ccc2nc([C@@H]3O[C@H](CO)[C@@H](O)[C@H](O)[C@H]3O)[nH]c2c1)NC(c1ccccc1)c1ccccc1,3.9%,nt,nt,nt,-0.6,nt,0.3%
CCOc1ccc(Nc2nc3ccccc3n2C)cc1,-1.8%,nt,nt,9,2.7,nt,0.0%
Cn1c2c(c(=O)n(C)c1=O)CN(Cc1ccccc1)CN2,-1.5%,nt,nt,nt,-0.6,nt,-0.1%
Cc1ccc(C(=O)N2CCCCC2C(=O)O)cc1S(=O)(=O)N1CCCCC1 (configuration not stated),1.7%,nt,nt,-9,-0.5,nt,1.0%
COc1ccc(CCNC(=O)C2CCC(=O)N2Cc2ccccc2Cl)cc1OC (configuration not stated),-0.7%,-2.7,23,-13,1.7,9%,-0.2%
Cc1occc1C(=O)NNC(=O)C(c1ccccc1)c1ccccc1,0.1%,0.7,25,2,0.5,3%,-1.5%[38.3 µM]
CCOc1ccc(OC(=O)c2sc3ncn(Cc4cccc(F)c4)c(=O)c3c2C)cc1,-0.8%,nt,nt,24,-0.2,nt,-0.1%
Cn1[nH]cc(C=NC(N)=O)c1=O,-1.5%,nt,nt,-21,0.2,nt,2.5%
Cc1ccccc1OC(C)C(=O)N1CCC(Cc2ccccc2)CC1 (configuration not stated),-1.2%,0.2,-9,-12,0.5,-13%,0.5%
COc1ccc(-c2noc(-c3ccc(N4CCCC4)c([N+](=O)[O-])c3)n2)cc1OC,0.5%,nt,nt,-9,-0.8,nt,0.0%
CCCNC(=O)C1(C)CCN(Cc2noc(-c3ccccc3OC)n2)C1 (configuration not stated),-15%,nt,nt,4,0.1,nt,0.8%
COc1ccc(CNC(=O)c2cccc(S(=O)(=O)N3CCCCC3)c2)cc1OC,1.1%,nt,-8,-9,-0.5,nt,0.3%
COc1ccc(-c2ccc(CCC(=O)O)o2)cc1,nt,5.2,28,11,-0.1,14µM*,2.8%
O=C(COC(=O)c1cccc2ccccc12)Nc1ncc(C(F)(F)F)cc1Cl,35µM*,5.9,29,1,0.2,-1%,10%
O=C(CCc1cn(Cc2ccccc2Cl)c2ccccc12)NC1CCCCC1,-3.5%,nt,nt,-1,0.1,nt,7.2%
O=C1C[C@@H]2CCN3C(=O)CCC[C@@H]([C@H]23)[C@@H]1Cc1ccccc1,2.0%,-0.3[94.6 µM],nt,13,-0.1,17%,-0.4%
O=C(Nc1ccccc1)c1cc(C2CCCCN2C(=O)c2cccs2)on1 (configuration not stated),-2.8%,nt,nt,nt,-0.7,nt,1.6%
COc1ccc(NC(=O)c2cc(S(=O)(=O)N3CCc4ccccc43)cn2C)cc1,-5.0%,-2.0,0,-2,2.4,3%,1.8%
CCC(=O)Oc1ccc(C(=O)Nc2ccccc2C(=O)NCC(C)C)cc1,-0.1%,1.0,-1,1,0.4,6%,0.3%
COc1cccc(NC(=O)c2ccc(NC(=O)C(C)(C)C)cc2)c1,-3.5%,-2.3,-8,12,1.3,5%,2.0%
CCOc1ccc(NC(=O)C2CCCN(S(=O)(=O)c3cccc4nsnc34)C2)cc1 (configuration not stated),0.7%,6.3,3,-7,0.1,9%,nt
Cc1ccc(Nc2nc3ccccc3c(=O)s2)cc1C,-0.1%,-3.7,-15,-8,1.6,-8%,2.2%
CCC1=Nc2cc(C(=O)NCCN3CCOCC3)ccc2Sc2ccccc21,-2.3%,-4.2,-27,5,-0.4,-2%,-0.1%
CCCS(=O)(=O)N1CCC(n2c(C(F)(F)F)nc3cccnc32)CC1,-4.6%,nt,nt,-10,-0.2,nt,-0.5%
COc1ccc(/C=N/NC(=O)c2nc(-c3ccccc3)n(-c3ccccc3)n2)cc1,-3.7%,2.0,24,-18,0.2,-15%,-5.3%
Cc1ccc2[nH]c(=O)c(CN(CCCN(C)C)C(=S)NCCc3ccccc3)cc2c1,nt,-2.6,-18,13,1.4,1%,-1.6%
COc1ccc(-c2noc(CCCC(=O)N3CCOCC3)n2)cc1,0.7%,-2.0,-1,21,-0.7,23%,0.1%
O=C(NCCc1ccccc1)C1CCN(C(=O)Nc2ccccc2)CC1,nt,nt,4,10,-0.9,nt,1.5%
O=C(CCl)N=c1sccn1Cc1cccc2ccccc12,-1.2%,2.2,-8,-1,0.4,-9%,-1.2%
Cc1cc(C)nc(NC(=O)c2c(F)c(F)c(F)c(C(=O)Nc3cc(C)cc(C)n3)c2F)c1,?,nt,nt,-13,1.6,nt,-0.2%
NS(=O)(=O)c1cc(C(=O)NCCc2ccccn2)ccc1Cl,0.6%,-0.9,-5,8,-0.2,-2%,0.5%

# New compounds follow.
SMILES,ClpP mod,Menin-MLL FL inh,TRPV1 potentiator,TRPML1 blocker,TRPML1 ag,Sfp PPTase inh,PINK1 expr mod
COc1ccc(CNC(=O)COC(=O)CC2CC3CCC2C3)cc1OC (configuration not stated),1.6%,5.1,-8,7,0.1,-9%,-0.7%
O=c1c2ccccc2nc(COc2ccccc2)n1/N=C/c1ccc(O)c(O)c1,0.2%,2.9,3,19,0.9,-1%,0.5%
CC(=O)CCc1oc2ccc(NC(C)=O)cc2c1-c1ccc(C)o1,-1.1%,1.3,-30,21,-0.8,13µM*,4.9%
COc1ccc(C(=O)C2CCCN(C(=O)CCC3=NNC(=O)CC3)C2)c(C)c1 (configuration not stated),nt,4.0,8,35,0.7,9%,-0.3%
CCS(=O)(=O)c1nc(S(=O)(=O)c2ccc(Cl)cc2)c(N2CCOCC2)s1,-1.2%,nt,-2,-24,0.9,10%,-1.3%
CCC(CC)C(=O)Nc1nc2c(s1)CC(C)CC2 (configuration not stated),-0.4%,nt,nt,12,0.1,nt,5.4%
O=C(NCc1cccnc1)c1ccc(-c2cc3ccccc3oc2=O)cc1,3.9%,1.5,7,7,0.2,11%,2.8%

# Screening data (PubChem)

# Compounds as they come. About 4.4% of those tested had a hit in this group.
